CSC inhib = cancer stem cell viability inhibitors, primary screen, luminescence; cancer stem cell-like cells viability; inhibition, % at 7.5 µM; 300,000 compounds, 1.1% hits; AID 2717, 2010;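 active means mean at 75% or more and at least half the replicates too; inconclusive means mean and replicates disagree; tested in HMLE shEcad cells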;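 further: 0% = median of negative and 100% = median of positive control wells; the first replicate is given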
eIF4H FP inh = human eIF4H binding inhibitors, primary screen, translation initiation inhibitor project, biochemical, uHTS, fluorescence polarization | Eukaryotic translation initiation factor 4H (Homo sapiens), Q15056 | eIF4H fluorescence polarization binding assay | inhibition, % at 35 µM | 290,000 compounds, 0.94% hits | AID 2012, 2009;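 active means 50% or more with normal probe brightness, or confirmed in later tests; inconclusive means above 50% with abnormal brightness, or retests that disagree; inactive means below 50% or failed in later tests; about a fifth of its hits are not listed in these tables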;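 further: calls also rest on retests at 20 µM and on dose response follow-up; 0% = protein and probe with vehicle and 100% = probe without protein; strong numbers were not always called active; many hits fall short of the cut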
PABP polyA inh = PABP poly(A) RNA binding inhibitors, primary screen, biochemical, fluorescence polarization, uHTS; 290,000 compounds, 1% hits; Polyadenylate-binding protein 1 (Homo sapiens), P11940; inhibition, % at 35 µM;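 active means 50% or more with normal probe brightness, or confirmed in later tests; inconclusive means above 50% with abnormal brightness, or retests that disagree; inactive means below 50% or failed in later tests; about a fifth of its hits are not listed in these tables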;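 further: calls also rest on retests at 20 µM and on dose response follow-up; controls were probe without protein and protein plus probe with vehicle; some compounds called inactive have numbers as strong as hits; many hits fall short of the cut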
Target sequence (P11940 whole entry, looked up): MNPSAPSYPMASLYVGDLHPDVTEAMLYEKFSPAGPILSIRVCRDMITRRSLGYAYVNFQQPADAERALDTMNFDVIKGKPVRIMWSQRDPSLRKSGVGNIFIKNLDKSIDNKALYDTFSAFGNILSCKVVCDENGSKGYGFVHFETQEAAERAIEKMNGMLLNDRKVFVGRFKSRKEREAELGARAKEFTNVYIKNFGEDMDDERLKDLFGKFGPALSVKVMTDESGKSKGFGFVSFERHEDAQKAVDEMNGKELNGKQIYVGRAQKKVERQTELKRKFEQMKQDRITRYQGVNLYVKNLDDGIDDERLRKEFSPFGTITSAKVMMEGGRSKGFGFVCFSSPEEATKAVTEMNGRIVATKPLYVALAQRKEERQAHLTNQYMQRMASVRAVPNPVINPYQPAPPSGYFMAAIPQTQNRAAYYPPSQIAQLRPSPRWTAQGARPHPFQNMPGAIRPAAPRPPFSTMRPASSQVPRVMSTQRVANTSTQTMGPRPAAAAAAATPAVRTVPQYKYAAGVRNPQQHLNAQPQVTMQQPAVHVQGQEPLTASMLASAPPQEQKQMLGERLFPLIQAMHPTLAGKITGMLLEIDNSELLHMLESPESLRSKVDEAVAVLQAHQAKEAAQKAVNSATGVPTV
UUG fidelity = modulators of yeast start codon fidelity, primary screen, whole organism, S. cerevisiae, single point, plate reader; S. cerevisiae UUG-firefly luciferase reporter, luminescence/redox ratio; 350,000 compounds, 0.13% hits; activity score, % at 18.7 µM;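 active means replicate mean at a twofold rise or more, about +100% in these data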;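 further: firefly luciferase made from a UUG start codon reports start codon fidelity; reporter light over untreated wells divided by growth signal over untreated wells; some hits fall short of that in this replicate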
HIV Env fusion = inhibitors of HIV-1 Env-driven cell-cell fusion, primary screen, HeLa-JRFL effector, CEM21 target cells, luciferase; inhibition, % at 12.3 µM; 360,000 compounds, 1.1% hits;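 active means mean replicate inhibition score of at least 50 and every replicate individually at or above 50; inconclusive means only one of the two criteria met; inactive means mean below 50 and not all replicates reaching 50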;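 further: 0% = plate neutral controls and 100% = maraviroc near 300 nM; one replicate is shown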
MT1-MMP act inh = blockers of MT1-MMP proenzyme processing, primary screen, HT1080 RFP-PRO-GFP cells, GFP/RFP fluorescence | Matrix metalloproteinase-14 (Homo sapiens), P50281 | GFP/RFP ratio fluorescence, overnight; percent of plate control window, DMSO zero | GFP/RFP ratio change, % at 20 µM | 360,000 compounds, 0.061% hits | AID 651647, 2012;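 active means GFP/RFP ratio change of at least 30% with cell ATP level not reduced by more than half and red fluorescence within 50% of control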; further: strong numbers were not always called active
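Material – HT1080 RFP-PRO-GFP cells · Control set – DMSO wells and RFP-L50D-GFP cells · Incubation – overnight cell settling, then overnight compound exposure, 37 °C, 5% CO2 · Compound dosing – single-point 20 µM compound, 1% DMSO · Read-out – GFP/RFP fluorescence ratio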
Rce1 inh = yeast Rce1p protease inhibitors, primary screen, biochemical, fluorescence, cell-free homogeneous; CAAX prenyl protease 2 (Saccharomyces cerevisiae (strain ATCC 204508 / S288c)), Q03530; yeast membranes, quenched prenylated peptide cleavage fluorescence; calls only; 290,000 compounds, 0.27% hits; AID 2563, 2010;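 active means fall in fluorescence gain of 50% or more versus controls, with final raw signal at or below 3038400; inconclusive means same 50% fall but final raw signal above 3038400; inactive means fall in fluorescence gain under 50%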;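 further: plate controls were neutral control wells for no effect and wells lacking membranes for full effect; tested at 10 µM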
MT1-MMP act inh RFP = also measured in MT1-MMP act inh; calls as there; RFP signal change, %; measured here: RFP expression control read;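 0 = vehicle wells; hits needed this value within 50% of zero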
* = called active by the depositor; i = inactive; ? = inconclusive; . = not tested or not shown; & = joins results of further samples. Only part of the results is shown; count on the stated rates, not on these rows.

SMILES	CSC inhib	eIF4H FP inh	PABP polyA inh	UUG fidelity	HIV Env fusion	MT1-MMP act inh	MT1-MMP act inh RFP	Rce1 inh
COc1ccc(NC(=O)CN2CCc3ccccc3C2)cc1	.	.	.	-5	8	8	2	.
COc1cc(C(=O)Nc2nnc(SCC(=O)NCC3CCCO3)s2)cc(OC)c1OC (stereo not given)	-11	0	5	2	-2	8	-1	i
O=c1oc(-c2ccc([N+](=O)[O-])cc2)nc2ccc(O)cc12	-3	0	-6	-10	8	2	2	i
Cc1c(C2(O)CCCCC2)[nH]c2ccc(C(F)(F)F)cc12	81*	.	.	-6	-2	6	-2	.
COc1ccc(/C(C)=N/NC(=O)CNC(=O)C(c2ccccc2)c2ccccc2)c(OC)c1	-15	-16	4	2	2	0	0	i
Cc1ccc(C2C(C#N)=C(N)N(c3cccnc3)C3=C2C(=O)CCC3)s1 (stereo not given)	-11	?	?	.	15	-15	1	i
Cc1ccccc1NC(=O)Nc1ccc(C(F)(F)F)cc1	19	-4	-8	.	-10	1	-3	i
Cn1c(=O)cc(N2CCCCC2)[nH]c1=O	-3	-3	-4	-2	4	-1	2	i
O=C(CCN1C(=O)c2ccccc2C1=O)Nc1ccc(S(=O)(=O)NC2=NCCCCC2)cc1	-5	-2	1	4	-24	-4	0	.
COCCCNC(=O)C(=O)NC1CCCCCC1	-11	-5	17	-6	-22	-5	1	i
CCOC(=O)C1=C(N)OC2=C(C(=O)CC(C)(C)C2)C1c1ccccc1OCC#N (stereo not given)	.	10	8	-9	-43	1	1	i
O=C(O)CC(CC(=O)N1CCOCC1)c1ccccc1 (stereo not given)	.	-11	7	1	-18	4	0	i
CC(C)(C)c1ccc(NC(=O)C(=O)C2C(=O)Nc3ccccc32)cc1 (stereo not given)	10	27	2	.	9	5	2	i
O=C(NCc1ccco1)C(c1ccccc1)N(C(=O)Cc1cccs1)c1ccccc1 (stereo not given)	-26	-4	13	-17	-89	5	2	i
Cc1ccc(N=Nc2ccc(C)cc2NC(=O)Nc2ccccc2F)cc1	13	1	-1	-1	-2	-2	-4	i
Cc1ccc(-n2nnc(-c3nccn3C)n2)cc1	24	-10	6	-69	-20	0	2	i
COC(=O)c1ccc(NC(=O)C(=O)N2CCN(C(=S)NCCc3ccccc3)CC2)cc1	0	-2	7	.	.	0	-5	i
CCCOc1cccc(C2C(C(=O)c3ccco3)=C(O)C(=O)N2CCN(CC)CC)c1 (stereo not given)	-7	0	-2	-14	-2	-1	-2	i
COc1ccccc1NC(=O)CON=C(N)CC(=O)NC1CCCCC1	-24	.	.	-15	6	-25	1	.
Nc1nc(Nc2ccccc2Cl)cc(=O)[nH]1	-12	1	3	-18	-2	-2	0	i
COc1ccc(/C=N/Nc2nc(=O)[nH]nc2C)cc1[N+](=O)[O-]	-10	-3	12	.	-12	3	9	.
O=C(CSc1ncn[nH]1)Nc1ccccc1Sc1ccc(Cl)cc1	9	-1	4	1	.	1	-11	i
Nc1cc(=O)n(Cc2ccccc2)c(=O)n1-c1ccc(Cl)cc1	-12	0	-1	.	5	0	1	i
O=C(CCNC(=O)c1ccc(Cl)cc1)Nc1nc2ccccc2[nH]1	-16	.	.	-18	2	-2	2	.
O=C(COC(=O)CSc1ccc(Cl)cc1)Nc1ccc2[nH]c(=O)[nH]c2c1	6	.	.	-3	-10	1	3	.
C=CC[N+]1(CC#CCOC(c2ccccc2)c2ccccc2)CCOCC1	-1	-1	0	-5	-35	0	4	i
CN(Cc1ccccc1)C(=O)COC(=O)c1ccccc1Nc1ccccc1	.	-1	-5	-6	-6	-1	3	i
Cc1cc(C(=O)CCC(=O)N2CCN(c3ccccc3O)CC2)c(C)s1	5	.	.	-24	.	-1	-3	.
c1ccc(-n2c(Cc3cccnc3)nc3cnccc32)cc1	-11	.	.	-10	-15	2	0	i
CCc1ccc(OC2(C)CCN(Cc3ccc(SC)cc3)C2)cc1 (stereo not given)	.	.	.	-11	?	5	4	.
COc1ccc(NC(=O)NC(C)c2ccncc2)cc1OC (stereo not given)	0	-9	8	-23	-21	2	3	i
CCOC(=O)C1CCN(C(=O)/C(=C/c2ccccc2)NC(=O)c2ccccc2)CC1	7	-12	-7	14	-12	-2	-5	i
Cc1cc2c(cc1S(=O)(=O)CCC(=O)N(C)Cc1ccccc1)OCC(=O)N2	7	-16	-4	-6	-14	3	3	i
CCn1cc(S(=O)(=O)Nc2ccccc2C(F)(F)F)cn1	1	-2	-9	-6	-12	4	-8	i
CC(=O)Oc1ccc2oc(=O)c3c(c2c1)CCCN3C(=O)CN1CCN(c2ncccn2)CC1	-16	-10	1	8	.	1	4	i
NC(=O)C1CCN(C2CC(=O)N(c3ccc(F)c(Cl)c3)C2=O)CC1 (stereo not given)	-15	-4	-3	-34	-17	-2	4	i
Cn1c(SCC(=O)O)nnc1-c1ccc(NC(=O)c2ccc(Cl)c(Cl)c2)cc1	-15	-3	4	6	5	8	0	i
Cc1cc(NCCCn2ccnc2)n2nc(C)c(-c3ccccc3)c2n1	-4	-5	-2	-7	-180	15	-11	i
COc1ccc(-c2cnc3c(c2)C(=O)N([C@H](C)CO)C[C@@H](C)[C@@H](CN(C)C(=O)NC2CCCC2)O3)cc1	.	.	.	9&11	-7	-3	2	.
O=C(Nc1ccc2c(c1)CCC2)c1ccc(F)c(S(=O)(=O)N2CCOCC2)c1	-9	-11	0	.	13	-1	-7	i
Cn1nc(C(F)(F)F)c(-c2ccc(Br)cc2)c1NC(=O)CSCC(=O)O	-58	10	9	.	-4	-2	2	i
CN(C(=O)c1ccc(NC(=O)Cc2ccc(NC(=O)C3CCCN(C(=O)C4CCCCC4)C3)cc2)cc1)C1CCCC1 (stereo not given)	.	.	.	-12	15	1	-2	.
Cc1c(C)n(Cc2ccccc2)c2ccc(C(=O)OCCCN(C)C)cc12	0	-7	-2	.	29	-8	-8	i
CC(=O)c1ccc(N2CCN(CC(O)COC(c3ccccc3)c3ccccc3)CC2)cc1 (stereo not given)	7	-3	18	-13	7	-1	-4	i
Nc1nnc(SCC(=O)Nc2cccc3ccccc23)s1	-3	-4	9	-21	6	-1	0	i
CCc1cc(=O)oc2cc(C)cc(O)c12	-1	4	-2	-5	-3	6	-1	i
Cc1cccc(C)c1NC(=O)C1c2ccccc2Oc2ccccc21	-8	0	5	.	-10	0	0	i
CC(=O)c1cc2c(cc1NC(=O)c1cnc(C)cn1)OCO2	-9	-6	4	-23	-20	3	1	i
C/C(N)=C(/C#N)C(=O)CSc1nnc(COc2ccccc2Cl)o1	6	25	10	-23	-62	0&4	1&2	i
Cc1ccccc1Nc1nc(N)nc(CSCC(=O)Nc2cccc(Br)c2)n1	-6	-3	3	.	23	-1	-5	i
CCOc1ccccc1NC(=O)c1ccc(S(=O)(=O)N2CCCCC2)cc1	45	-6	4	-7	2	1	3	i
N#Cc1c(-c2cccs2)cc(-c2ccccn2)nc1N	-9	11	14	-13	.	-17	-9	i
COc1ccc(CCN(C(=O)C(F)(F)F)C(C(=O)NC2CCCCC2)c2cccs2)cc1 (stereo not given)	15	-7	7	.	11	-17	-14	i
Oc1ccccc1CN1CCCN(Cc2ccccc2O)C1	8	-7	-4	-9	11	9	1	i
O=C(Cc1ccc(Cl)cc1)NCCCNC(=O)c1cccnc1	-2	1	2	-14	10	-3	-3	i
COc1ccc(NC(=S)NC(=O)c2cc3ccccc3o2)c(OC)c1	-4	-11	-7	-17	-11	2	-2	i
O=C(O)c1cccc2c1C(=O)c1cc(Br)ccc1S2(=O)=O	-17	.	.	-2	11	-3	-4	.
FC(F)(F)c1nnc2ccc(N3CCCCCC3)nn12	10	1	4	1	.	1	-9	.
CCOC(=O)C1CCCN(c2c(N3CCN(c4ccccn4)CC3)c(=O)c2=O)C1 (stereo not given)	.	1	6	-13	18	-4	3	.
Cc1ccc(Cn2ccsc2=NC(=O)COC(=O)c2ccc(O)cc2O)cc1	-6	0	-6	-1	-10	-2	-14	i
Additional entries
SMILES	CSC inhib	eIF4H FP inh	PABP polyA inh	UUG fidelity	HIV Env fusion	MT1-MMP act inh	MT1-MMP act inh RFP	Rce1 inh
O=C(COc1ccccc1Cl)Nc1cnn(Cc2ccccc2)c1	-1	-2	-4	-7	.	3	-3	i
COc1ccc(C2Nc3ccccc3C(=O)N2c2ccccc2)cc1COc1ccccn1 (stereo not given)	.	-1	15	-8	.	1	0	i
COc1ccc(Oc2ccc(C(F)(F)F)cc2N)cc1	2	10	10	-5	-11	-1	-1	.
COc1ccc(CNC(=O)CNC(=O)CNS(=O)(=O)c2ccc(C)c(C)c2)cc1	-29	6	1	-19	9	0	2	i
Cc1ccc(NC(=O)COC(=O)c2cc(=O)c3ccccc3o2)c(Br)c1	-2	.	.	-10	-148	-1	-3	.
CC(C)CCN1CCN(CC#Cc2ccccc2)CC1CCO (stereo not given)	14	-2	-1	.	-10	-10	-1	i

Part of the list above in order of formula weight, lowest first.
SMILES	CSC inhib	eIF4H FP inh	PABP polyA inh	UUG fidelity	HIV Env fusion	MT1-MMP act inh	MT1-MMP act inh RFP	Rce1 inh
COc1ccc(Oc2ccc(C(F)(F)F)cc2N)cc1	2	10	10	-5	-11	-1	-1	.
FC(F)(F)c1nnc2ccc(N3CCCCCC3)nn12	10	1	4	1	.	1	-9	.
Oc1ccccc1CN1CCCN(Cc2ccccc2O)C1	8	-7	-4	-9	11	9	1	i
O=C(Cc1ccc(Cl)cc1)NCCCNC(=O)c1cccnc1	-2	1	2	-14	10	-3	-3	i
O=C(COc1ccccc1Cl)Nc1cnn(Cc2ccccc2)c1	-1	-2	-4	-7	.	3	-3	i
O=C(O)c1cccc2c1C(=O)c1cc(Br)ccc1S2(=O)=O	-17	.	.	-2	11	-3	-4	.
CCOC(=O)C1CCCN(c2c(N3CCN(c4ccccn4)CC3)c(=O)c2=O)C1 (stereo not given)	.	1	6	-13	18	-4	3	.
Cc1ccc(NC(=O)COC(=O)c2cc(=O)c3ccccc3o2)c(Br)c1	-2	.	.	-10	-148	-1	-3	.
COc1ccc(CNC(=O)CNC(=O)CNS(=O)(=O)c2ccc(C)c(C)c2)cc1	-29	6	1	-19	9	0	2	i
COc1ccc(C2Nc3ccccc3C(=O)N2c2ccccc2)cc1COc1ccccn1 (stereo not given)	.	-1	15	-8	.	1	0	i
COc1ccc(CCN(C(=O)C(F)(F)F)C(C(=O)NC2CCCCC2)c2cccs2)cc1 (stereo not given)	15	-7	7	.	11	-17	-14	i

Screening data: PubChem BioAssay, several laboratories
